High-throughput results deposited in PubChem BioAssay by several laboratories.
B2AR ag = human beta-2 adrenergic receptor agonism by FAP; P07550; Am2.2-beta2AR cells, FAP receptor internalization, flow cytometry; reference of the scale not given here; response, % (test concentration not listed); 340,000 tested, 0.43% active; AID 504454;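 active = response above a set limit, near 3 SD of response in nonfluorescent compounds, cut at about 42% in these data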;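 note: stock transfer was 100 nL into about 11 µL; a reference agonist was the positive control; negative values mostly stem from fluorescent compounds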
Target sequence (P07550 whole entry, looked up): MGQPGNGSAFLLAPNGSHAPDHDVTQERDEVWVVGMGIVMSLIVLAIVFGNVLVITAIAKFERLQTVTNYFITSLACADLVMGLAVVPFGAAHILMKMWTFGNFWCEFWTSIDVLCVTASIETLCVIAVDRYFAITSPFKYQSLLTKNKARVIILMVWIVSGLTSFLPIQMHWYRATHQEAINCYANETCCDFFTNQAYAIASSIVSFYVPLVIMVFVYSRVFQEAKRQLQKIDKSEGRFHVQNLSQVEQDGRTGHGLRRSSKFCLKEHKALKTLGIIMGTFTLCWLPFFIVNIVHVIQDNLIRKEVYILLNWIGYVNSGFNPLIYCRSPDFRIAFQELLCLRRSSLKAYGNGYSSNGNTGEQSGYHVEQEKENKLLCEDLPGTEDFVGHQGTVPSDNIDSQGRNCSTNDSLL
E coli growth = inhibitors of Escherichia coli growth; OD600 absorbance (test concentration not listed); OD600, 23 h; hits give low values; 330,000 tested, 0.21% active; AID 1053175;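 active = OD600 absorbance below the run mean of sample wells minus 3.6 SD, in any replicate, cut at about 0.56 in these data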;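 note: stock transfer was 300 nL into about 60 µL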
LANA-H2B inh = blocks KSHV LANA binding to histone H2A/H2B. Q9QR71. cell-free LANA-H2A/H2B peptide, fluorescence polarization. inhibition, % (no concentration beside the values). 320,000 tested, 0.6% active; in the data active = inhibition mostly above about 10%, no sharp cut-off; inactive = mostly below about 6.7%;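 note: stock transfer was 7.5 nL into about 10 µL; 0% = median of vehicle wells and 100% = median of positive control wells; one replicate is shown; the record names a cut of 25% in any replicate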
HNF4A DNA FP = change in binding of human HNF4 alpha to DNA; P41235; HNF4a-FITC DNA binding, fluorescence polarization, 1 h; activity change, % at 10 µM; 360,000 tested, 0.3% active; in the data active = activity change above about 30%, passing the limit was not always enough;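 note: controls were the assay level and a saturating level of protein; the project sought stronger binding though the title names inhibitors; some compounds called inactive have numbers as strong as hits; positive values seem to mean higher polarization but the record does not say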
Vif TR-FRET = inhibitors of Vif binding to APOBEC3G peptide, primary screen, biochemical, TR-FRET, GST-Vif 1-94, biotin-A3G peptide, dose response retest (AID 1117319); TR-FRET GST-Vif / biotin-A3G peptide binding; higher % means a stronger effect; test concentration not given here; strong numbers were not always called active; inhibition, %; hits with a dose series show IC50 in µM; 260,000 tested, 0.57% active;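 active = above the screen mean plus three standard deviations and confirmed in dose response; inconclusive = results disagree or hit not tested in dose response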;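 note: Vif residues 1-94 fused to GST binding biotinylated APOBEC3G peptide 110-148; 0% = full assay without inhibitor and 100% = GST in place of GST-Vif; retest series ran down from 100 µM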
Bfl-1 A1 inh = inhibitors of the anti-apoptotic protein A1, read as caspase activation | MEF A1-2A-BIM cells, Caspase-Glo 3/7 luminescence, 3 h; percent of clofoctol response, vehicle zero | caspase activation, % (concentration not given with the values) | 330,000 tested, 0.066% active | AID 2462;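 active = over half of replicate activation scores above 10%, or exactly half above 10 with the replicate mean above 10; inconclusive = replicate mean below 10 yet half the replicates above 10; inactive = over half of replicates below 10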;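 note: wells of about 30 µL received 50 nL stock; many hits fall short of the cut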
UCH37 DUB inh = inhibitors of human deubiquitinating enzyme UCH37 | Q9Y5K5 | purified proteasome/UCH37, Ub-AMC cleavage fluorescence | inhibition, % (test concentration not listed) | 330,000 tested, 0.33% active;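 active = mean of two replicates above 20%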;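 note: 0% = compound-free wells with enzyme and 100% = wells lacking proteasome; stock transfer was 100 nL into about 20 µL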
Target sequence (Q9Y5K5 whole entry, looked up): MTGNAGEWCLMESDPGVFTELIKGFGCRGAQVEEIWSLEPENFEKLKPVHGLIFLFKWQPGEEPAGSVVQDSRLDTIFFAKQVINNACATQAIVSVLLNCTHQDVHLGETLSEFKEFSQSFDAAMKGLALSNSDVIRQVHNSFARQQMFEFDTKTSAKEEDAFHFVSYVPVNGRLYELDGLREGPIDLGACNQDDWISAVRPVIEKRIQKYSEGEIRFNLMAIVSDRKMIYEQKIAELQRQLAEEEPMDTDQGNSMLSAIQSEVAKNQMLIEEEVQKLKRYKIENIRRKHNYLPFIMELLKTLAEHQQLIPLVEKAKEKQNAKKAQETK
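Material: Human UCH37 enzyme supplied as purified proteasome complex | Schedule: 30 min preincubation with enzyme, 25 min cleavage at room temperature | Detection: AMC fluorescence 355/460 nm | Measure: % inhibition of Ub-AMC cleavage fluorescence | Controls: Wells without proteasome as full block, compound-free enzyme plus substrate as uninhibited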
An asterisk follows results filed as active; ? = inconclusive; . = no result given; + = active, no number.

Start of the data: the first two compounds (preview)
SMILES	B2AR ag	E coli growth	LANA-H2B inh	HNF4A DNA FP	Vif TR-FRET	Bfl-1 A1 inh	UCH37 DUB inh
CS(=O)(=O)Nc1ccccc1C(=O)OCC(=O)NCc1cccs1	0	0.66	2.3	3.0	-2%	-1.0	2.1
COc1cccc(NC(=O)C2CCCN2C(=O)Nc2ccccc2)c1 (stereo not drawn)	-14	0.7	1.3	0.0	.	-0.2	5.0

The listing, previewed entries included:
SMILES	B2AR ag	E coli growth	LANA-H2B inh	HNF4A DNA FP	Vif TR-FRET	Bfl-1 A1 inh	UCH37 DUB inh
CS(=O)(=O)Nc1ccccc1C(=O)OCC(=O)NCc1cccs1	0	0.66	2.3	3.0	-2%	-1.0	2.1
COc1cccc(NC(=O)C2CCCN2C(=O)Nc2ccccc2)c1 (stereo not drawn)	-14	0.7	1.3	0.0	.	-0.2	5.0
CO/N=C(/CS(=O)(=O)Cc1ccccc1Cl)c1ccc(Cl)cc1Cl	-2	.	7.2	8.5	1%	-0.3	.
O=C(C1=C(O)C(=O)N(c2ncccn2)C1c1ccc(Cl)c(Cl)c1)c1ccco1 (stereo not drawn)	1	0.65	-3.6	14	?	-0.6	7.8
CCc1noc(C)c1C(=O)Nc1nc2ccc(OC)cc2s1	-5	0.66	0.7	-0.8	3%	-2.8	-6.3
Cc1ccc(C(=O)OCc2nc(N)nc(Nc3ccccc3C)n2)cc1	-12	0.66	-4.9	2.0	3%	0.0	2.1
Cc1cnc(C(=O)OCC(=O)N=c2sccn2Cc2ccccc2Cl)cn1	-1	0.71	-1.8	1.8	.	0.0	0.4
CCCCn1c(N)c(N(CCC(C)C)C(=O)C2CC(=O)N(CCc3ccc(OC)c(OC)c3)C2)c(=O)[nH]c1=O (stereo not drawn)	-5	0.67	2.1	-1.9	3%	1.3	0.0
COc1ccc(N2CCN(C(=O)CN3CCN(c4nc(-c5ccc(F)cc5)cs4)CC3)CC2)cc1	1	0.67	-5.9	0.3	.	0.2	2.9
O=C(CCc1c[nH]c2ccccc12)N1CCN(S(=O)(=O)c2ccccc2)CC1	1	0.65	2.3	4.6	-5%	-1.3	0.9
C=CCn1c(=S)[nH]c2cc(-c3ccccc3)sc2c1=O	-6	0.67	2.8	0.6	.	-1.1	1.9
COc1nc(OC)nc(N2CCC(NC(=O)C(Cc3cccc(OC)c3OC)NC(C)=O)CC2)n1 (stereo not drawn)	3	0.71	1.2	-0.5	0%	-0.4	-0.2
C/C=C/C(=O)Nc1ccc(N2CCN(c3ccc(C(F)(F)F)cn3)CC2)nc1	10	0.63	-1.4	2.4	-1%	0.5	-2.8
O=C(CCN1C(=O)/C(=C/c2ccc(F)cc2)SC1=S)NC1CCS(=O)(=O)C1 (stereo not drawn)	-4	0.69	1.4	1.6	4%	-1.9	6.5
CC(C)N(Cc1ccccc1)S(=O)(=O)c1ccc2c(c1)NC(=O)CO2	2	0.68	.	-2.6	.	.	0.3
O=C(O)CCc1nc2ccccc2c(=O)[nH]1	0	0.71	-0.5	1.1	.	-0.5	1.7
COC(=O)c1ccccc1OCCCOc1ccc(C=O)cc1OC	5	0.72	-0.4	0.3	?	1.4	3.3
Cc1nn2c(-c3ccco3)nnc2c2ccccc12	-2	0.68	1.4	1.2	1%	-1.3	7.2
Cc1nc(SCC(=O)Nc2ccccc2)c2oc3ccccc3c2n1	-24	0.7	10	-2.4	-156%	0.1	-1.3
COc1ccc(O)c(/C=N/Nc2nc3ccccc3[nH]2)c1	-1	.	2.6	-1.5	.	-0.3	.
O=C1c2ccccc2C(=O)N1CCCOc1ccccc1	-3	0.73	-5.0	-2.4	0%	0.0	-1.1
COc1ccc2nc(N=Nc3ccc(O)c4ccccc34)sc2c1	8	0.7	-1.1	4.0	?	-1.0	5.3
CC(NC(=O)C1CCC1)c1ccccc1 (stereo not drawn)	9	0.76	0.6	-1.6	-3%	1.3	0.2
O=C(Nc1ccccc1C(=O)N/N=C/c1ccco1)c1ccc(Cl)cc1	-6	.	+	0.4	-3%	-5.2	.
O=C(c1ccc2c(c1)N(Cc1ccccc1F)C(=O)c1ccccc1S2)N1CCOCC1	.	0.66	-3.8	.	16%	0.0	0.6
Going on with the list:
SMILES	B2AR ag	E coli growth	LANA-H2B inh	HNF4A DNA FP	Vif TR-FRET	Bfl-1 A1 inh	UCH37 DUB inh
CCOC(=O)c1ccc(NC(=O)C(=O)NCc2ccncc2)cc1	13	0.65	-0.9	1.9	27%	0.2	0.3
Cc1ccc2c(c1)C(=O)C(=O)N2Cc1ccc(C(F)(F)F)cc1	28	0.62	1.7	-4.1	.	?	3.2
COc1cc(OC)cc(-c2c(-c3cccs3)c3cc(-c4ccc5[nH]ccc5c4)ccc3n2C)c1	-3	0.84	0.0	6.4	.	0.6	6.8
O=C1C(=O)N(C2CCCC2)C(=O)N1Cc1c(F)cccc1Cl	-3	0.65	1.7	0.2	.	-0.6	-1.0
COc1ccc(N2C(=O)CC(N3CCN(c4ccccc4F)CC3)C2=O)cc1 (stereo not drawn)	4	0.67	-6.4	-2.1	-3%	-0.1	-2.8
COc1ccc2c3n(nc2c1)CCN=C3c1ccc(C)cc1	-4	0.68	-0.8	2.5	.	1.1	4.2
COc1ccccc1N1CC(C)(C)C(=O)N(C(=O)c2c(F)cccc2Cl)C1=S	3	0.68	-2.2	-0.3	7%	0.7	0.3
CCOC(=O)C1CCN(C(=O)COC(=O)c2cccc(F)c2)CC1	-4	0.71	0.2	0.8	9%	0.3	-2.2
C[C@H](OC(=O)N1CCN(C(c2ccccc2)c2ccccc2)CC1)[C@@H]1O[C@@]2(C)CCC[C@H]1O2	11	.	2.9	-0.2	.	-1.7	0.6
Cc1cc2oc(=O)cc(C)c2cc1NC(=O)CCl	-4	.	2.9	1.5	.	0.2	.
ON=C1c2ccccc2-c2cc(Br)ccc21	12	.	.	-3.2	4%	.	.
CCn1c(C)c(C(C)=O)c(N2CCCCC2)nc1=S	-3	0.7	6.3	-1.1	5%	0.3	0.9
Cc1ncc(CSc2nc3ccccc3[nH]2)c(N)n1	-13	0.66	-0.2	2.7	25%	0.6	4.0
O=C(COC(=O)c1cc([N+](=O)[O-])ccc1NCCO)Nc1ccc2c(c1)OCO2	3	0.73	1.9	-3.0	-6%	0.4	-8.8
Cc1ccc(NC(=O)CC2SC(=O)N(c3ccccc3)C2=O)cc1 (stereo not drawn)	3	0.75	3.9	0.3	4%	0.1	4.8
CC(=O)C1=C(C)Nc2ncnn2C1c1ccccc1 (stereo not drawn)	-6	0.69	-1.3	0.6	-1%	0.2	0.6
Nc1ccc(Oc2cc(N)cc(Oc3ccccc3)c2)cc1	0	0.67	-2.0	3.6	.	2.0	2.2
OCc1nnn(-c2cccc(C(F)(F)F)c2)c1CO	4	0.74	4.9	5.4	1%	0.5	3.7
C/C(=N\NC(=O)Cc1ccc(Cl)cc1)c1cccnc1	-12	.	-2.7	0.8	-4%	0.1	.
CCN(CC(=O)Nc1c(F)cccc1F)C(=O)C1CCN(S(=O)(=O)c2ccc(F)cc2)CC1	2	0.68	-2.5	-3.4	-1%	-0.2	3.7
Cc1ccc(C(=O)CSC2=C(C#N)C(c3ccco3)C3=C(CC(C)(C)CC3=O)N2)cc1 (stereo not drawn)	9	0.75	-0.9	0.3	7%	-0.2	-0.1
CCn1c(C)c(Br)c(=O)c(C(=O)OC)c1-c1ccc(Cl)cc1	5	0.69	1.0	-4.1	6%	?	3.4
Cc1cc(C(=O)NCc2cccnc2)no1	20	0.7	-8.6	-4.2	18%	0.6	2.8
CCC(C)N1CNc2c(c(=O)[nH]c(=S)n2-c2cccc(C)c2)C1 (stereo not drawn)	8	0.62	-0.8	4.9	4%	-0.3	-5.1
COc1ccc(CCNC(=O)CN2C(=O)COc3ccc(S(=O)(=O)N4CCOCC4)cc32)cc1OC	0	0.7	1.0	0.1	.	0.9	-2.8
(cont.)
SMILES	B2AR ag	E coli growth	LANA-H2B inh	HNF4A DNA FP	Vif TR-FRET	Bfl-1 A1 inh	UCH37 DUB inh
COc1ccc(S(=O)(=O)NCc2ccc(C(=O)N3CCN(Cc4ccccc4)CC3)cc2)cc1	3	0.66	0.1	-3.5	-12%	0.2	1.7
CC(C)CN(CC(C)C)S(=O)(=O)N1CCC(C(=O)NCc2ccc3c(c2)OCO3)CC1	-6	0.71	-4.8	-2.4	0%	-0.6	4.2
COc1ccc(-c2n[nH]c(=S)n2/N=C/C=C/c2ccccc2OC)cc1	0	.	-1.1	-1.0	.	0.1	.
COC(=O)Cn1c(=O)sc2ccccc21	2	0.66	2.6	0.7	2%	0.0	-2.2
O=C(COc1ccc(Br)cc1)NCC1COc2ccccc2O1 (stereo not drawn)	-22	0.67	-6.1	-2.1	-5%	-0.7	4.9
C[C@H](NC(=O)OCc1ccccc1)C(=O)NNC(=O)[C@H](C)NC(=O)OCc1ccccc1	-4	.	0.1	-4.3	68%	0.0	2.7
O=C(COC(=O)c1ccccc1-n1cnnn1)c1ccc(F)c(F)c1	-6	0.68	2.9	-0.8	1%	-0.4	1.3
C=CCN(CC(=O)Nc1cccnc1)S(=O)(=O)c1ccc(Cl)cc1	-6	0.6	1.1	1.9	2%	-0.1	0.6
COC(=O)c1sc(=S)n(-c2ccc(Cl)cc2)c1C	-8	0.72	2.0	3.0	-3%	-1.2	-0.5
CC(C)CNC(=O)C(=O)NCC1OCCN1S(=O)(=O)c1cccs1 (stereo not drawn)	5	0.74	-1.5	1.8	2%	-0.4	0.2
COc1ccc(C)cc1N1CC(C(=O)Nc2ccccc2N2CCCCC2)CC1=O (stereo not drawn)	-6	0.71	0.6	1.3	.	0.5	4.6
CCCN(CCC)S(=O)(=O)c1ccc(C(=O)Nc2nnc(-c3cc(OC)cc(OC)c3)o2)cc1	13	0.75	-8.4	0.4	?	0.6	-109
O=C(CCN1CCN(c2ccccc2)CC1)NNC(=O)Cc1ccccc1Cl	-6	0.68	.	3.1	-7%	.	1.5
COc1ccc(/C=N/Nc2nnc(C)n2N)cc1OC(C)=O	-2	.	3.4	1.7	-4%	0.5	.
Cc1cc(C)n(CCC(=O)N/N=C/c2c(O)ccc3ccccc23)n1	5	.	-0.6	1.7	7%	0.3	.
CCN(CC)S(=O)(=O)c1ccc(N=Nc2cc(C)cc(Br)c2O)cc1	-3	0.7	3.5	-4.5	.	0.0	4.7
COc1ccc([N+](=O)[O-])cc1N(CC(O)Cn1nnc2ccccc21)S(=O)(=O)c1ccc(C)cc1 (stereo not drawn)	4	0.69	5.4	-0.8	?	0.9	4.0
O=C(CNC(=O)C1COc2ccccc2O1)N/N=C\c1ccc(Cl)cc1 (stereo not drawn)	-3	.	2.4	0.2	-2%	-0.6	.
NCCNC(=O)c1c(NC(=O)c2ccccc2)sc2c1CCCC2	4	0.63	8.8	-1.6	-1%	0.8	-4.8
COc1cc(OC)c(-c2nc(-c3ccncc3)no2)cc1OC	7	0.71	-4.0	-0.1	.	0.1	1.8
Cc1ccc(OCC(=O)c2cc(C)n(CC(F)(F)F)c2C)c([N+](=O)[O-])n1	3	0.68	-2.5	6.2	18%	0.7	-0.6
CCC(=O)Nc1ccc(NCc2ccc(-c3ccccc3)cc2)cc1	8	0.66	-3.4	4.0	.	0.6	0.7
CN(C)CCCNC(=O)c1ccc(-c2nc(-c3ccc(Cl)cc3)cs2)cc1	24	0.59	-3.7	0.1	-13%	1.6	-43
O=C(NC1CCCCC1)c1ccc(Cl)c(NC(=O)c2ccccc2F)c1	.	0.64	-2.3	.	.	0.5	5.5
CC(NC(=O)c1cccs1)C(c1cccs1)N1CCOCC1 (stereo not drawn)	3	0.67	-8.0	-1.2	6%	0.2	0.4
O=C(c1nc2ccccn2c1CNCCCn1nnc2ccccc21)N1CCOCC1	-3	0.67	-1.0	1.6	8%	0.4	-2.8

Outcome played no part in choosing rows; about 2.1% have a hit in one of these screens.
